D2 agonist = HTS Assay for Allosteric Agonists of the Human D2 Dopamine Receptor: Primary Screen for Agonists; D(2) dopamine receptor (Homo sapiens), P14416; HEK293 T-REx D2 cells, calcium flux agonist mode; activation, % at 2 µM; hit rate 0.53% among 340,000;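 active means activation over 3 SD above normal in the single-dose calcium agonist read, cut at about 30% in these data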; further: 0% is about no effect
Target sequence (P14416 whole entry, looked up): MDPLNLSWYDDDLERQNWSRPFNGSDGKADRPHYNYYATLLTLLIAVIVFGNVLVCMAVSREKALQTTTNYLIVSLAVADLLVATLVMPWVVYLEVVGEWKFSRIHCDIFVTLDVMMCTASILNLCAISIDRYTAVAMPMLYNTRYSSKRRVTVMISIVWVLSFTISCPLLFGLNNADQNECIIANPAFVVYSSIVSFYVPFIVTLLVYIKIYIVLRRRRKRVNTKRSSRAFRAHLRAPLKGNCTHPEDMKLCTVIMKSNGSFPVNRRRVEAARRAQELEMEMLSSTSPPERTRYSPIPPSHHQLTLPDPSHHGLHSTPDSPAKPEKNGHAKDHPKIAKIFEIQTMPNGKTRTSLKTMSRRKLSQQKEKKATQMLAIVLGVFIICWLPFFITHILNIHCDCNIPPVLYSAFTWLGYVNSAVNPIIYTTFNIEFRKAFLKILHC
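Agonism scored from kinetic calcium signal (1 read/sec, 180 s) following compound pin transfer, after a 10 s baseline. Cells: HEK293 Trex line expressing inducible D2 receptor coupled to calcium, dye-loaded after overnight culture at 30 C.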
RXFP1 antag = qHTS Assay for Antagonists of the Relaxin Receptor RXFP1; Relaxin receptor 1 (Homo sapiens), Q9HBX9; HEK293-RXFP1, relaxin-stimulated cAMP HTRF, 30 min; hits give low values; activity change, negative = inhibition, % at 57.5 µM; hit rate 0.59% among 350,000; AID 1259400, 2018;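 active means activity change of -60% or lower, but not beyond a set lower limit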; further: on the % scale 0 is the no-effect control and ±100 the full control effect
D2 PAM = HTS Assay for Positive Allosteric Modulators of the Human D2 Dopamine Receptor: Primary Screen for Potentiators. D(2) dopamine receptor (Homo sapiens), P14416. HEK293 T-REx D2, calcium flux, EC20 dopamine potentiation. potentiation, % at 10 µM. hit rate 0.34% among 340,000. AID 485347, 2010;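 active means potentiation over 3 SD above the plate norm, cut at about 30% in these data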; further: 0% is about no effect
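Using a no-wash calcium dye in inducible, force-coupled HEK293 Trex cells expressing D2, we tracked fluorescence each second for 180 s after compound, then for 180 s after EC20 dopamine to detect augmented signalling.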
D2 antag = HTS Assay for Allosteric Antagonists of the Human D2 Dopamine Receptor: Primary Screen for Antagonists | HEK293 TREx D2 cells, calcium flux, dopamine EC80 | inhibition, % at 10 µM | hit rate 2% among 340,000 | AID 485344, 2010; in the data active means inhibition above about 30%; further: 0% is about no effect
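HEK293 T-REx D2 cells, tet-induced, calcium dye no-wash. Cpd pintool add, 180 s kinetic, then EC80 DA, 180 s kinetic. Ca flux read.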
* hit, by the source's call; / = not tested or not shown; & = joins results of further samples. These rows are one share of the data (hit frequency here may not be typical).

Short keys: A = D2 agonist; B = RXFP1 antag; C = D2 PAM; D = D2 antag
1) CC1=NS(=O)(=O)c2cc(Cl)ccc2N1
  A: /	B: 7.7	C: 7.6	D: /

2) CC(C)NCC(O)c1cc(O)cc(O)c1 (stereo unspecified)
  A: 0.7	B: 1.8	C: 6.2	D: -3.2

3) C[C@]12C=CC(=O)C=C1CC[C@@H]1[C@@H]2C(=O)C[C@@]2(C)[C@H]1CC[C@]2(O)C(=O)CO
  A: 0.9&8.9	B: -21.7	C: 6.0&10.9	D: 4.6&-29.4

4) C[C@@H]1O[C@@H]1P(=O)(O)O
  A: -0.7	B: /	C: -0.7	D: -2.7

5) CC(C)Oc1ccc2c(=O)c(-c3ccccc3)coc2c1
  A: -4.7&-1.8	B: -33.0&-30.4	C: -3.1&0.1	D: -10.3&-1.0

6) CC(C)(Oc1ccc(Cl)cc1)C(=O)O
  A: -0.6	B: -8.9	C: -3.1	D: -6.0

7) CC(=O)CC(c1ccc([N+](=O)[O-])cc1)c1c(O)c2ccccc2oc1=O (stereo unspecified)
  A: -2.5	B: -12.7	C: 6.0	D: 13.6

8) CN(C)CCC(c1ccc(Br)cc1)c1ccccn1 (stereo unspecified)
  A: 0.9&-0.6	B: /	C: -6.9&3.8	D: 13.2&-1.4

9) NCC(=O)O
  A: /	B: 17.0	C: /	D: /

10) CN1CCN(CC(=O)N2c3ccccc3C(=O)Nc3cccnc32)CC1
  A: /	B: -6.3	C: /	D: /

11) COC(=O)CCC(=O)CN
  A: 1.6	B: /	C: 6.1	D: -21.9

12) C#CC1(O)CCC2C3CCC4=C(CCC(=O)C4)C3CCC21C (stereo unspecified)
  A: /	B: -7.8	C: /	D: /

13) CCCCOc1ccc(OCCCN2CCOCC2)cc1
  A: 2.0	B: -9.0	C: -6.9	D: 18.7

14) CC(=O)C1CCC2C3CCC4CC(=O)CCC4(C)C3C=CC12C (stereo unspecified)
  A: /	B: -17.5	C: /	D: /

15) Nc1ccc(S(=O)(=O)Nc2ccccn2)cc1
  A: 0.9	B: -13.4	C: 8.0	D: -20.8

Reformatted with bars between the fields: entries from further up.
no. | SMILES | D2 agonist | RXFP1 antag | D2 PAM | D2 antag
6 | CC(C)(Oc1ccc(Cl)cc1)C(=O)O | -0.6 | -8.9 | -3.1 | -6.0
13 | CCCCOc1ccc(OCCCN2CCOCC2)cc1 | 2.0 | -9.0 | -6.9 | 18.7

(more compounds)
Short keys: A = D2 agonist; B = RXFP1 antag; C = D2 PAM; D = D2 antag
16) CN(C)CC[C@@H](c1ccc(Br)cc1)c1ccccn1
  A: /	B: 14.3	C: /	D: /

17) N[C@@H]1CONC1=O
  A: 9.3	B: -10.7	C: 18.9	D: -10.5

18) Cc1ccc(/C(=C\CN2CCCC2)c2ccccn2)cc1
  A: -1.0	B: 12.6	C: -13.3	D: -23.0

19) OCC(O)[C@@H](O[C@H]1O[C@H](CO)[C@@H](O)[C@H](O)[C@H]1O)[C@H](O)[C@@H](O)CO (stereo partly specified)
  A: -1.3	B: /	C: 3.8	D: -8.3

20) Cc1cc(C(=O)NNCc2ccccc2)no1
  A: 0.5	B: /	C: 6.0	D: -9.4

Part of the list above, with two lines to a compound:
Values in the order: D2 agonist | RXFP1 antag | D2 PAM | D2 antag
17	N[C@@H]1CONC1=O
→ 9.3 | -10.7 | 18.9 | -10.5
18	Cc1ccc(/C(=C\CN2CCCC2)c2ccccn2)cc1
→ -1.0 | 12.6 | -13.3 | -23.0
19	OCC(O)[C@@H](O[C@H]1O[C@H](CO)[C@@H](O)[C@H](O)[C@H]1O)[C@H](O)[C@@H](O)CO (stereo partly specified)
→ -1.3 | / | 3.8 | -8.3
20	Cc1cc(C(=O)NNCc2ccccc2)no1
→ 0.5 | / | 6.0 | -9.4

Arranged by the number under D2 PAM (descending): four from the list above
cpd | SMILES | RXFP1 antag | D2 PAM | D2 antag
17 | N[C@@H]1CONC1=O | -10.7 | 18.9 | -10.5
20 | Cc1cc(C(=O)NNCc2ccccc2)no1 | / | 6.0 | -9.4
19 | OCC(O)[C@@H](O[C@H]1O[C@H](CO)[C@@H](O)[C@H](O)[C@H]1O)[C@H](O)[C@@H](O)CO (stereo partly specified) | / | 3.8 | -8.3
18 | Cc1ccc(/C(=C\CN2CCCC2)c2ccccn2)cc1 | 12.6 | -13.3 | -23.0

Screening data from PubChem.
